# TRPV1 potentiator: enhances activation of the human vanilloid receptor TRPV1 | 320,000 compounds, 0.02% hits | Q8NER1 | potentiation, % at 8.33 µM | TRPV1-expressing cells, Fluo-8 calcium influx, capsaicin EC20 potentiation; host cell line not named in the record; control for the full effect not named in the record; active means potentiation above 80%; inconclusive means 30% to 80%; inactive means below 30%; also: 0% is about no effect
# Target sequence (Q8NER1 whole entry, looked up): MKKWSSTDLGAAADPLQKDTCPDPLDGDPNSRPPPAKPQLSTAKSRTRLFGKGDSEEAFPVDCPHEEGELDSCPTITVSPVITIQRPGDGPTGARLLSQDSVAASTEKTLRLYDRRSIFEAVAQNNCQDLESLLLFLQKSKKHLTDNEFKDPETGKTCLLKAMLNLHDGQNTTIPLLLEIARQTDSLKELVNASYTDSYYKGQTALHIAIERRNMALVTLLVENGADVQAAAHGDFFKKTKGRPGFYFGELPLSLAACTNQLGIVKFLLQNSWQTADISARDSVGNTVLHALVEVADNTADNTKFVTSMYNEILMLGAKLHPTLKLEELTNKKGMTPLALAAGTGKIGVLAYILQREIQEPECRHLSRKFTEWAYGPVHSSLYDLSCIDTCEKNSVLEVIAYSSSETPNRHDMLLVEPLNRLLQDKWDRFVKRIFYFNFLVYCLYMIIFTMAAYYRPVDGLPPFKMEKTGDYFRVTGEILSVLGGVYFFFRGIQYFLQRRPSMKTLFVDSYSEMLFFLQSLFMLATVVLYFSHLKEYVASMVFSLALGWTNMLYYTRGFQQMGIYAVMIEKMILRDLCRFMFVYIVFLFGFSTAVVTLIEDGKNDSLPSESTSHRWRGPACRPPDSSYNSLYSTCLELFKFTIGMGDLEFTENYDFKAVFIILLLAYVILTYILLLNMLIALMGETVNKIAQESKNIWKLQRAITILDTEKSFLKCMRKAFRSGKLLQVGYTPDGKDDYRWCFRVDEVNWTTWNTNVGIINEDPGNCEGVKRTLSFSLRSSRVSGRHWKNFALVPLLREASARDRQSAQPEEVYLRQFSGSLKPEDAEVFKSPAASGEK
#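 Fluo-8 calcium influx in TRPV1-expressing cells, kinetic read (ex 480/em 520 nm). Compound added and read 3 min for agonist activity, followed by capsaicin at EC20 final and 2 min further read for enhancement.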
# Sfp PPTase inh: blocks B. subtilis Sfp PPTase activity; AID 1490; 310,000 compounds, 3.5% hits; Potency, µM, without a hit: max response, negative = inhibition, hits mostly inhibitors; Biochemical Sfp PPTase activity, qHTS; active = well fitted inhibition curve with a large enough effect; inconclusive = small, poorly fitted or top-dose-only effect, or another doubt; inactive = no such curve, though single readings can be large or run the other way;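 also: the enzyme is Sfp with the accession as filed and its product quenches rhodamine fluorescence; potency is read from the fitted curve at half-maximal effect; 0% = enzyme reaction without inhibitor and -100% = no enzyme wells; top concentration of the series not given in the record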
#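 After 15 min at room temperature with compound, 15 nM Sfp received 5 uM rhodamine-CoA plus 12.5 uM BHQ-2-ybbR (50 mM Hepes pH 7.6, 10 mM MgCl2). Rate came from the fluorescence difference over 30 min, ex 525/em 598 nm.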
# CtBP-E1A inh: CtBP/E1A binding inhibition; activity change, % (no concentration beside the values); AlphaScreen GST-E1A/His-CtBP binding, 1536-well; hits give low values; control for the full effect not named in the record; AID 651724; 340,000 compounds, 0.49% hits; in the data active means activity change below about -65%; inconclusive means about -30% to -65%; inactive means above about -30%; also: % is scaled to controls: 0 for no effect and ±100 for the full control effect
#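 Steps: dispense buffer (Tris pH 8.0, NaCl 300 mM, TCEP 1 mM, BSA, Tween 20); add 5X protein mix (GST-E1A, His-CtBP, 125 nM each); pin 23 nL compound; 2 h at 37 °C, dark; add 5X beads (50 ug/mL); 1 h; read.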
# gsp antagonist: gsp mutant antagonism; gsp-mutant cells, cAMP HTRF, 30 min; control for the full effect not named in the record; Potency, µM (top dose mostly 76.9 µM), for inactives: at the highest dose activity change, negative = inhibition, usual class: inhibitors; 340,000 compounds, 0.4% hits; AID 624288; active = falling curve of any shape with a large fitted effect; inconclusive = falling curve, mostly with a smaller effect; inactive = flat or rising curve; cell line not stated here;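 also: intracellular cAMP measured with PDE inhibitor Ro 20-1724 present during compound exposure; potency is read from the fitted curve at half-maximal effect; % is scaled to controls: 0 for no effect and ±100 for the full control effect; nearly all actives have a fitted effect of over 65% in size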
#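 Cells in G418 medium, seeded 16-24 h, 37C; buffer exchange to DPBS + 1 mM CaCl2, 0.5 mM MgCl2, 0.05% BSA; cpds in DMSO + […] (300 uM stock), 30 min 37C; HTRF cAMP detection.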
# Menin MLL FP FL: menin-MLL binding inhibition, fluorescein peptide; Fluorescence polarization, fluorescein-MLL peptide displacement from menin; 290,000 tested, under 10 active; FP activity change, % at 61.4 µM; AID 1766; inconclusive = falling polarisation curve, or a change in total fluorescence; inactive = total fluorescence flat and polarisation flat or rising; no compound was filed as active; the % refers to the polarisation; negative = inhibition;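 also: % of control where 0% means no effect; inhibitors lower the polarisation; unlabelled MLL peptide was the positive control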
# gsp agonist: agonists of gsp mutant (McCune-Albright syndrome); gsp mutant cells, cAMP HTRF, 30 min; control for the full effect not named in the record; Potency, µM (series often up to 76.9 µM), for the others: at the top dose activation (cAMP increase), usual class: activators; 340,000 compounds, 0.13% hits; active = well fitted activation curve with a large enough effect; inconclusive = small, poorly fitted or top-dose-only effect, or another doubt; inactive = no such curve, though single readings can be large or run the other way; cell line not stated here;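 also: phosphodiesterase inhibitor Ro 20-1724 added with compounds to block cAMP breakdown; potency is read from the fitted curve at half-maximal effect; nearly all actives have a fitted effect of over 60% in size; about a fifth of the inactives were tested at one dose only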
#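 Cells stably selected in G418 were plated at 2000/well, grown 16-24 hr, then given compounds in DMSO with the PDE inhibitor […] (300 uM solution added) for 30 min at 37C; cAMP was read by HTRF.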
# ClpP mod: qHTS Assay for Activators of ClpP. Potency, µM (doses to about 57.5 µM), inactives show at the top dose activity change, negative = active. ATP-dependent Clp protease proteolytic subunit (Bacillus subtilis (strain 168)), P80244. 340,000 compounds, 1.9% hits. AID 651965, 2013. purified B. subtilis ClpP, FRET peptide cleavage, 20 min; active = well fitted falling curve with a large enough effect; inconclusive = small, poorly fitted or top-dose-only effect; inactive = no such curve, though single readings can be large or run the other way; also: potency is read from the fitted curve at half-maximal effect; the source files actives as falling curves though it sought activators and does not explain the sign; nearly all actives have a fitted effect of over 65% in size; many hits overshoot -100%
# Target sequence (P80244 whole entry, looked up): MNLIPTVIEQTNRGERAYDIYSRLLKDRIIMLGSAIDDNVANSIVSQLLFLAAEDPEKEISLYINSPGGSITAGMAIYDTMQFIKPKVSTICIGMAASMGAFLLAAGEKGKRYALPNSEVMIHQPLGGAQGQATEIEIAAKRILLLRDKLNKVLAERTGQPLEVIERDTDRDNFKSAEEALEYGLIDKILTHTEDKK
#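 Buffer: 100 mM Tris/HCl pH8, 100 mM KCl, 0.05% low protease BSA, 2.5% glycerol, 0.01% Tween-20. ClpP 10 microg/mL final; 20 min RT; delta FRET normalized to ADEP and DMSO controls.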
# * hit, by the source's call; ? = inconclusive; · = no result given; [ ] = dose if it differs, or a comment.
nr	compound	TRPV1 potentiator	Sfp PPTase inh	CtBP-E1A inh	gsp antagonist
1	O=C(N/N=C/c1ccc([N+](=O)[O-])cc1)c1cccc2cc[nH]c12	1	21%	·	-2%
2	CC1(C)CSC(=NCCc2ccccc2)N1C(=O)c1ccc(C#N)cc1	-12	?	18	0%
3	CC(=O)c1ccc(S(=O)(=O)N2CCN(C(=O)CN3C(=O)NC4(CCCC4)C3=O)CC2)cc1	-6	·	4	7%
4	Cc1cc(F)ccc1S(=O)(=O)Nc1ccc(C(=O)N2CCCCC2)cc1	·	·	1	-4%
5	CCCCn1c(SCC(=O)Nc2oc(C)c3c(C)n[nH]c(=O)c23)nc2cc(S(N)(=O)=O)ccc21	4	·	-1	9%
6	O=C(NNC(=O)c1cccc2ccccc12)c1ccccc1O	-4	4%	?	-3%
7	CCN(CC(=O)NCc1cccs1)C(=O)c1ccc(S(=O)(=O)Nc2ccccc2Cl)cc1	5	·	-12	-9%
8	CC1=CN2C(=N)/C(=C/c3ccc(Sc4ccc(Cl)cc4)o3)C(=O)N=C2S1	-2	19%	-10	-6%
9	Cc1ccnc(NC(=O)CCC(=O)N(CC(=O)NC2CCCCC2)c2ccc3c(c2)OCO3)c1	5	0%	0	5%[15.4 µM]
10	CC(C)c1ccc(NC2CCCN(C(=O)c3ccnc(Cl)c3)C2)cc1 (centres undefined)	-12	14%	-2	-4%
11	COc1cc(C(=O)Nc2ccc3c(c2)ncn3C)cc(OC)c1OC	-7	11%	10	32%
12	Cc1ccc([N+](=O)[O-])cc1NC1OC(CO)C(O)C1O (centres undefined)	24	15%	-3	4%
13	CCN(CC)C(=O)/C(=C/c1ccc(F)cc1)NC(C)=O	-7	3%	-13	13%
14	O=C(Cc1ccc([N+](=O)[O-])cc1)Nc1ccc(O)cc1C(=O)O	7	4%	-6	11%
15	COc1cccc(-n2nnnc2SCC(=O)Nc2cccc(NC(C)=O)c2)c1	-6	5%	4	-20%

nr	Menin MLL FP FL	gsp agonist	ClpP mod
1	-0.1	5%	0.9%
2	2.9	-15%[15.4 µM]	-0.9%
3	·	-4%[15.4 µM]	·
4	·	?	·
5	·	?	6.4%
6	·	17%	-3.4%
7	·	-33%[inhibitor]	-3.9%
8	?	-28%	1.8%
9	4.5	-2%	-4.8%
10	0.0	-2%	·
11	-1.1	-5%	1.1%
12	-1.4	1%	0.1%
13	1.3	10%	1.1%
14	-0.4	-16%	-3.4%
15	1.8	7%	-0.7%

# (further entries)
nr	compound	TRPV1 potentiator	Sfp PPTase inh	CtBP-E1A inh	gsp antagonist
16	O=Cc1cn(CC(=O)N2CCCCC2)c2ccccc12	6	14%	-1	-20%
17	O=C(NCCOc1ccccc1)c1ncn[nH]1	0	3%	?	10%
18	CC(Oc1ccc(Br)cc1)C(=O)NCC1(N2CCCCC2)CCCCC1 (centres undefined)	-20	·	·	15%
19	O=C1C(CSCc2ccccc2)NC(=S)N1c1ccccc1 (centres undefined)	11	-9%	·	0%
20	CC(=O)Nc1ccc(S(=O)(=O)NCCC(=O)Nc2cccc(Cl)c2)cc1	-22	8%	-11	12%
21	CN(C)c1ccc(C(c2ccc(N(C)C)cc2)C(O)c2ccccc2)cc1 (centres undefined)	·	·	-2	?
22	CC(=O)O[C@@H]1[C@@H](OC(C)=O)[C@H](n2ccc3cc([N+](=O)[O-])ccc32)OC[C@@H]1OC(C)=O	·	·	-8	0%
23	Cc1cc(C)c(S(C)(=O)=O)c(Oc2cccc(C(F)(F)F)c2)n1	-5	-14%	9	·
24	CCN1CCN(c2cc(C)c3cc(NC(=O)c4ccc(Br)o4)ccc3n2)CC1	-4	-1%	-2	0%
25	C=CCNC(=O)C1CCC(=O)N1S(=O)(=O)c1ccc(C)cc1 (centres undefined)	-9	-9%	-8	9%
26	COc1ccc2[nH]cc(C3N4CC5(C)CN3CC(C)(C4)C5=O)c2c1 (centres undefined)	-28	7%	-17	2%
27	O=[N+]([O-])c1cc(-c2cnc3ccccc3n2)ccc1Oc1ccc(Cl)cc1	-7	-13%	-13	-13%
28	O=C(NN1C(=O)c2ccccc2C1=O)c1ccc2c(c1)C(=O)N(CC1CCCO1)C2=O (centres undefined)	-4	17%	0	0%
29	COC(=O)C(C(=O)OC)C(C[N+](=O)[O-])c1ccc(OC)c(OC)c1 (centres undefined)	18	17%	1	8%
30	COC(=O)c1c(NC(=O)CN2CCOCC2)sc2c1CCC(C)C2 (centres undefined)	17	-1%	5	?

nr	Menin MLL FP FL	gsp agonist	ClpP mod
16	-1.4	32%	0.5%
17	-1.2	-9%	-3.4%
18	·	34%	-1.1%
19	3.8	-1%	-0.2%
20	0.1	-9%[15.4 µM]	·
21	·	-21%	6.1%
22	·	-2%	-4.1%
23	-2.3	12%[15.4 µM]	·
24	1.5	-26%	-3.5%
25	-4.3	-4%[15.4 µM]	0.9%
26	-4.7	8%	-1.2%
27	5.6	-86%[inhibitor]	0.1%
28	2.9	0%[15.4 µM]	·
29	4.0	28%	2.3%
30	1.8	-19%	-8.1%

# 10 of the compounds above, with one line to a screen:
[16] O=Cc1cn(CC(=O)N2CCCCC2)c2ccccc12
[17] O=C(NCCOc1ccccc1)c1ncn[nH]1
[18] CC(Oc1ccc(Br)cc1)C(=O)NCC1(N2CCCCC2)CCCCC1 (centres undefined)
[19] O=C1C(CSCc2ccccc2)NC(=S)N1c1ccccc1 (centres undefined)
[20] CC(=O)Nc1ccc(S(=O)(=O)NCCC(=O)Nc2cccc(Cl)c2)cc1
[21] CN(C)c1ccc(C(c2ccc(N(C)C)cc2)C(O)c2ccccc2)cc1 (centres undefined)
[22] CC(=O)O[C@@H]1[C@@H](OC(C)=O)[C@H](n2ccc3cc([N+](=O)[O-])ccc32)OC[C@@H]1OC(C)=O
Assay by compound	16	17	18	19	20	21	22
TRPV1 potentiator	6	0	-20	11	-22	·	·
Sfp PPTase inh	14%	3%	·	-9%	8%	·	·
CtBP-E1A inh	-1	?	·	·	-11	-2	-8
gsp antagonist	-20%	10%	15%	0%	12%	?	0%
Menin MLL FP FL	-1.4	-1.2	·	3.8	0.1	·	·
gsp agonist	32%	-9%	34%	-1%	-9%[15.4 µM]	-21%	-2%
ClpP mod	0.5%	-3.4%	-1.1%	-0.2%	·	6.1%	-4.1%

[23] Cc1cc(C)c(S(C)(=O)=O)c(Oc2cccc(C(F)(F)F)c2)n1
[24] CCN1CCN(c2cc(C)c3cc(NC(=O)c4ccc(Br)o4)ccc3n2)CC1
[25] C=CCNC(=O)C1CCC(=O)N1S(=O)(=O)c1ccc(C)cc1 (centres undefined)
Assay by compound	23	24	25
TRPV1 potentiator	-5	-4	-9
Sfp PPTase inh	-14%	-1%	-9%
CtBP-E1A inh	9	-2	-8
gsp antagonist	·	0%	9%
Menin MLL FP FL	-2.3	1.5	-4.3
gsp agonist	12%[15.4 µM]	-26%	-4%[15.4 µM]
ClpP mod	·	-3.5%	0.9%

# The results go on:
nr	compound	TRPV1 potentiator	Sfp PPTase inh	CtBP-E1A inh	gsp antagonist
31	CCOC(=O)c1c(C)n(C)c2ccc(OC)c(NC(=O)CN3CCCCC3)c12	-6	14%	3	20%
32	Cn1c(SCC(=O)Nc2nccs2)nnc1-c1ccncc1	-5	?	-2	12%
33	CCOC(=O)c1c(NC(=O)COC(=O)c2ccc(NC(=O)CC#N)cc2)sc(C(=O)NC)c1C	1	·	·	-10%
34	CCCCC(=O)Nc1nnc(CCOC)s1	10	-4%	·	-2%
35	O=C(NCc1ccc2c(c1)OCO2)C1Cc2ccccc2CN1C(=O)c1ccco1 (centres undefined)	7	11%	-12	·
36	CCN(CC)c1ccc2c(C)c(Cl)c(=O)oc2c1	-3	56µM*	20	5%
37	O=C(CN1CCOCC1)OCCCC1CCCCC1	-17	-6%	3	16%
38	CCCCNc1c(N)n(CCC)c(=O)[nH]c1=O	-3	15%	13	-27%
39	CCOC(=O)C1C(c2ccc3c(c2)OCO3)NC(=O)NC1(O)C(F)(F)F (centres undefined)	-2	-5%	-4	6%
40	CCn1nc2cc(C(=O)NCCc3cccs3)ccc2c1OC	-2	-4%	·	2%
41	CN(CC(=O)Nc1ccc(S(=O)(=O)N2CCCC2)cc1)Cc1ccc(Cl)cc1	5	-1%	-2	1%
42	CC1Cc2nc(SCC(=O)NCc3ccco3)n(Cc3ccccc3)c(=O)c2S1 (centres undefined)	1	-3%	-6	-20%
43	O=C(c1ccc(Cl)cc1)n1c(NCc2ccccc2)n[nH]c1=S	2	-1%	7	-2%
44	O=C1c2cccc3c([N+](=O)[O-])ccc(c23)C(=O)N1c1ccccn1	·	9%	-4	-11%
45	CC(=O)Cn1c(=O)oc2ccccc21	-12	19%	2	-3%
46	CC(C)CN(C(=O)COc1ccc(-c2nnco2)cc1)C1CCS(=O)(=O)C1 (centres undefined)	-3	21%	0	-13%
47	COc1ccc(/C=C2/CCc3ccccc3C2=O)cc1CN1CCOCC1	-2	1%	2	-5%
48	CCOC(=O)c1ccc(NC(=O)NCc2ccc(OC)cc2)cc1	10	5%	10	-8%

nr	Menin MLL FP FL	gsp agonist	ClpP mod
31	0.1	-5%[15.4 µM]	0.9%
32	1.5	-4%	-3.6%
33	·	11%	-19%
34	0.1	-32%	-1.7%
35	-5.4	4%[15.4 µM]	·
36	-7.6	?	·
37	-8.2	1%	0.1%
38	?	12%[15.4 µM]	·
39	0.8	-51%[inhibitor]	-5.5%
40	1.3	4%	4.0%
41	1.5	-15%	-0.1%
42	0.6	-17%	-3.9%
43	-3.8	8%[15.4 µM]	0.2%
44	?	?	-5.8%
45	-0.5	-11%[15.4 µM]	·
46	-1.0	-64%[inhibitor]	-3.2%
47	2.8	-32%[inhibitor]	-1.7%
48	3.8	-2%	?

# Screening results (PubChem)
